gsp ag: qHTS for Agonist of gsp, the Etiologic Mutation Responsible for Fibrous Dysplasia/McCune-Albright Syndrome: qHTS; 0.13% of 340,000 active; AID 624287, 2012; gsp mutant cells, cAMP HTRF, 30 min; control for the full effect not named in the record; Potency, µM (top dose mostly 76.9 µM), for the others: top-dose activation (cAMP increase), most hits filed as activators; active = well fitted activation curve with a large enough effect; inconclusive = small, poorly fitted or top-dose-only effect, or another doubt; inactive = no such curve, though single readings can be large or run the other way; cell line not stated here;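 also: phosphodiesterase inhibitor Ro 20-1724 added with compounds to block cAMP breakdown; potency is read from the fitted curve at half-maximal effect; nearly all actives have a fitted effect of over 60% in size; about a fifth of the inactives were tested at one dose only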
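Cells stably selected in G418 were plated at 2000/well, grown 16-24 hr, then given compounds in DMSO with the PDE inhibitor […] (300 uM solution added) for 30 min at 37C; cAMP was read by HTRF.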
Sfp inh: qHTS Assay for Inhibitors of Bacillus subtilis Sfp phosphopantetheinyl transferase (PPTase); Potency, µM, for inactives: max response, negative = inhibition, usual class: inhibitors; 3.5% of 310,000 active; 4'-phosphopantetheinyl transferase ffp (Bacillus subtilis), Q9F4F7; Biochemical Sfp PPTase activity, qHTS; active = well fitted inhibition curve with a large enough effect; inconclusive = small, poorly fitted or top-dose-only effect, or another doubt; inactive = no such curve, though single readings can be large or run the other way;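 also: the enzyme is Sfp with the accession as filed and its product quenches rhodamine fluorescence; potency is read from the fitted curve at half-maximal effect; 0% = enzyme reaction without inhibitor and -100% = no enzyme wells; top concentration of the series not given in the record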
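Buffer: 50 mM Hepes-Na pH 7.6, 10 mM MgCl2, 0.01% Nonidet P-40, 0.01% BSA. Enzyme 15 nM, pre-exposed to compound 15 min; substrates then added and fluorescence change tracked over 30 min.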
Menin-MLL FL inh: qHTS Assay for Inhibitors Targeting the Menin-MLL Interaction in MLL Related Leukemias: Competition With Fluorescein Labeled MLL-derived Peptide. Fluorescence polarization, fluorescein-MLL peptide displacement from menin. FP activity change, % at 61.4 µM. 290,000 tested, under 10 active; inconclusive = falling polarisation curve, or a change in total fluorescence; inactive = total fluorescence flat and polarisation flat or rising; no compound was filed as active; the % refers to the polarisation; negative = inhibition;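 also: % of control where 0% means no effect; inhibitors lower the polarisation; unlabelled MLL peptide was the positive control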
ClpP mod: qHTS Assay for Activators of ClpP; purified B. subtilis ClpP, FRET peptide cleavage, 20 min; 1.9% of 340,000 active; AID 651965, 2013; ATP-dependent Clp protease proteolytic subunit (Bacillus subtilis (strain 168)), P80244; Potency, µM (doses to about 57.5 µM), without a hit: at the highest dose activity change, negative = active; active = well fitted falling curve with a large enough effect; inconclusive = small, poorly fitted or top-dose-only effect; inactive = no such curve, though single readings can be large or run the other way; also: potency is read from the fitted curve at half-maximal effect; the source files actives as falling curves though it sought activators and does not explain the sign; nearly all actives have a fitted effect of over 65% in size; many hits overshoot -100%
Target sequence (P80244 whole entry, looked up): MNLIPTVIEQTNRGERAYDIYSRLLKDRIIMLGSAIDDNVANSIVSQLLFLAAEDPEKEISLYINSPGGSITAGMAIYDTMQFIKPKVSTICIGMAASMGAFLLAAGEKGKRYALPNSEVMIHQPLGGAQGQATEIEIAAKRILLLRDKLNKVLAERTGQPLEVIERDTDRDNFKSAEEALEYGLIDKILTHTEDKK
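Purified B. subtilis ClpP, 10 microg/mL final in Tris/HCl pH8 with KCl, BSA, glycerol and Tween-20, cleaved an Abz/nitrotyrosine-quenched decapeptide. Fluorescence (ex 320, em 430) was read at 0 and 20 min at room temperature. Delta was normalized to 5.8 microM ADEP and DMSO/no-enzyme controls.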
D2 potentiator: Beta-Arrestin HTS for Positive Allosteric Modulators of the Human D2 Dopamine Receptor: Potentiators; DiscoveRx D2 beta-arrestin cells, luminescence, 90 min; 100% = 57 uM dopamine signal; potentiation, % (test concentration not listed); 0.23% of 360,000 active; active = potentiation of 50% or more; inconclusive = 30% to 50%; inactive = 30% or less;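 also: compound concentration not given in the record; tested on top of an EC20 dose of dopamine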
Target sequence (P14416 whole entry, looked up): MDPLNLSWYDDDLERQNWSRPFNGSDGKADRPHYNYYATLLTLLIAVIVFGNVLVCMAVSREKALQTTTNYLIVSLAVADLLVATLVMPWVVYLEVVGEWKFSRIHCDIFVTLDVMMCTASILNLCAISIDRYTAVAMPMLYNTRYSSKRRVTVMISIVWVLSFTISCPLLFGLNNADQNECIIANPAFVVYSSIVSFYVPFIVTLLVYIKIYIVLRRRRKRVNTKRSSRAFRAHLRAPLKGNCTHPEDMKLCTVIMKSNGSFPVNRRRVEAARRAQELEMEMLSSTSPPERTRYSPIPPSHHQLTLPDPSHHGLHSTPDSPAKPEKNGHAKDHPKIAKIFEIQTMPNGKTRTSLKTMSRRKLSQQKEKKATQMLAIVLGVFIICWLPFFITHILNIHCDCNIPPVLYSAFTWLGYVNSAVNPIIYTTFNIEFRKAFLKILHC
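D2 cells co-treated with compound plus 50 nM dopamine (EC20) for 90 min at 37 deg C to detect potentiation. Beta-arrestin recruitment was read as enzyme-fragment luminescence after 1 h at ambient temperature. Full response was set by 57 uM dopamine.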
TRPV1 PAM: HTS Assay for Compounds that Act as Potentiators of the Vanilloid Receptor 1; Transient receptor potential cation channel subfamily V member 1 (Homo sapiens), Q8NER1; TRPV1-expressing cells, Fluo-8 calcium influx, capsaicin EC20 potentiation; host cell line not named in the record; control for the full effect not named in the record; 0.02% of 320,000 active; potentiation, % at 8.33 µM; active means potentiation above 80%; inconclusive means 30% to 80%; inactive means below 30%; also: 0% is about no effect
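Fluo-8 calcium influx in TRPV1-expressing cells, kinetic read (ex 480/em 520 nm). Compound added and read 3 min for agonist activity, followed by capsaicin at EC20 final and 2 min further read for enhancement.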
gsp antag: qHTS for Antagonists of gsp, the Etiologic Mutation Responsible for Fibrous Dysplasia/McCune-Albright Syndrome: qHTS. gsp-mutant cells, cAMP HTRF, 30 min; control for the full effect not named in the record. Potency, µM (top dose mostly 76.9 µM), inactives show at the top dose activity change, negative = inhibition, usual class: inhibitors. 0.4% of 340,000 active. AID 624288, 2012; active = falling curve of any shape with a large fitted effect; inconclusive = falling curve, mostly with a smaller effect; inactive = flat or rising curve; cell line not stated here;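 also: intracellular cAMP measured with PDE inhibitor Ro 20-1724 present during compound exposure; potency is read from the fitted curve at half-maximal effect; % is scaled to controls: 0 for no effect and ±100 for the full control effect; nearly all actives have a fitted effect of over 65% in size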
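HTRF cAMP measurement after 30 min RT detection following 30 min, 37C compound treatment alongside […] (added as 300 uM solution) in G418-selected cells seeded at 2000/well and grown 16–24 h.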
The depositor's hits bear a star; ? = inconclusive; nt = not tested or not shown; [ ] = another dose, or the depositor's remark.

SMILES	gsp ag	Sfp inh	Menin-MLL FL inh	ClpP mod	D2 potentiator	TRPV1 PAM	gsp antag
CCn1c(SCC(=O)Nc2ccc(C)cc2)nnc1-c1cnccn1	-25%	4%	nt	-1.0%	-9	5	4%
O=C(CN1CCN(S(=O)(=O)/C=C/c2ccccc2)CC1)Nc1ccc(N2CCOCC2)cc1	-41%[inhibitor]	14%	0.7	-1.7%	3	5	-5%
CCc1ccc(OCC(=O)N/N=C/c2cc([N+](=O)[O-])ccc2N2CCOCC2)cc1	9%	5%	1.3	1.8%	-5	1	?
COc1ccc(C(CCO)NC(=O)c2cccs2)cc1OC (stereo not given)	11%[15.4 µM]	9%	-0.9	-2.1%	-9	3	-10%
c1ccc(N2CCCCC2)c(Nc2nc3ccccc3n3cnnc23)c1	1%[15.4 µM]	26%	2.4	nt	1	-1	1%
CC(c1ccc(F)cc1)n1c(-c2cccs2)n[nH]c1=S (stereo not given)	16%[15.4 µM]	?	-2.6	nt	-8	-4	8%
COC(=O)c1cc2n(n1)CCN(Cc1ccc(F)cc1)C2=O	-23%	23%	0.9	-5.5%	-6	18	-7%[15.4 µM]
CCCOc1c(Cl)cc(C(=O)Nc2ccc3c(c2)OCO3)cc1OCC	-12%	15%	1.4	-1.0%	-32	-13	?
CC(Oc1ccc(Br)cc1)c1nc2c3ccccc3nc(=S)n2[nH]1 (stereo not given)	-5%[15.4 µM]	-19%	6.1	1.5%	-40	2	-33%
O=C(CN1CCN(C(=O)C2CCCO2)CC1)Nc1ccc(F)cc1 (stereo not given)	?	13%	3.5	-1.9%	-3	-16	5%
CCn1cc(C(=O)NCc2ccc(OC)cc2OC)c(=O)c2ccc(C)nc21	nt	9%	2.8	nt	nt	-2	nt
COCCNC(=O)CN1CCC(NC(=O)C(C)(C)C)CC1	1%	11%	-7.3	1.8%	-5	22	7%
C[C@@H]1CN([C@@H](C)CO)S(=O)(=O)c2ccc(Br)cc2O[C@H]1CN(C)C(=O)c1ccncc1	-14%	nt	nt	-0.6%	2	nt	nt
COc1ccc(-n2c(COc3ccc(C)cc3)nnc2SCC(N)=O)cc1	18%	7%	-1.6	1.3%	-23	-4	-2%
CCSc1nc2ccccc2n1C(=O)Oc1ccccc1	-2%	0%	6.7	-0.9%	-27	2	13%
CSc1ncccc1C(=O)Nc1cc(C)ccn1	0%	7%	nt	0.6%	-10	20	11%
Cc1ccc(SCC(=O)OCC(=O)N2CCN(C(=O)c3ccco3)CC2)c(C)c1	1%[15.4 µM]	nt	nt	?	-20	6	4%
COC(=O)c1[nH]c2ccc(C)cc2c1NC(=O)Nc1ccc(OC)cc1	19%	-26%	4.6	3.0%	-8	-10	-1%
COc1ccc(C(=O)/C(=C/N(C)C)S(=O)(=O)c2ccccc2)cc1	-10%[15.4 µM]	16%	-4.7	nt	-6	15	4%
Cc1ccc(C(C)C)c(OCC(=O)NNCC(=O)Nc2cccc(F)c2)c1	2%	nt	nt	0.4%	1	nt	4%
C=CCOC(=O)C1=C(C)Nc2nnnn2C1c1cccs1 (stereo not given)	-1%	11%	0.2	-0.1%	1	3	-14%
c1ccc(COc2ccc(OCCCCN3CCCC3)cc2)cc1	?	?	-5.3	-1.1%	-23	3	13%
O=C(NCc1ccco1)c1ccc2snnc2c1	19%	2%	-1.4	-3.2%	19	-10	9%
O=C(OCc1ccccc1)N1CCC2CC1c1cc(-c3cc4ccccc4o3)ccc12 (stereo not given)	-16%	nt	nt	4.1%	-2	nt	nt
CCNC(=S)N/N=C(\C)c1cc2ccccc2o1	-35%[inhibitor]	10%	4.3	-2.4%	-16	-6	1%
CCCn1c2c(c(O)c(C(=O)NC)c1=O)CCCC2	13%	-4%	2.7	-21%	-14	4	10%
CCOC(=O)/C(C#N)=C/C=C1\C=Cc2ccccc2N1CC	-46%[inhibitor]	?	?	1.7%	-10	4	?
Cc1ccc(C(=O)NCc2cccc(C(F)(F)F)c2)cc1S(=O)(=O)N1CCCCC1	-8%[15.4 µM]	nt	nt	nt	-1	-9	1%
CCOC(=O)c1ccc(S(=O)(=O)N2CCN(CC(=O)NC(=O)NC3CCCCC3)CC2)cc1	3%	?	-0.6	-0.1%	-23	-9	-4%
O=C(Nc1cccc(C(=O)NC2CC2)c1)c1ccc(Cl)c(S(=O)(=O)N2CCOCC2)c1	3%	nt	nt	0.1%	5	2	-10%
CC(C)S(=O)(=O)C1=NSC2=NC(=O)/C(=C\c3ccc(OC(=O)c4ccco4)cc3)C(=N)N21	4%	2%	nt	1.7%	5	15	3%
CSc1ccccc1NC(=O)C1CCCO1 (stereo not given)	11%	79µM*	2.9	-2.6%	-13	-18	9%
COc1ccccc1C(=O)C1CCCN(C(=O)c2cn3cc(Cl)ccc3n2)C1 (stereo not given)	-5%	8%	-2.5	nt	-6	-3	0%
Cc1onc(-c2ccccc2)c1CNC(=O)C1COc2ccccc2O1 (stereo not given)	15%[15.4 µM]	13%	-4.0	nt	-5	-2	-4%
CSc1nc(N2CCOCC2)nc2ccc(C)cc12	?	nt	nt	3.7%	1	?	-7%
CCN(CC)c1ccc(/C=N/NC(=O)CC(C)C)cc1	-2%[15.4 µM]	-5%	1.1	18µM*	-14	2	3%
CC(C)(C)c1ccc(C(=O)NCCN2CCCC2)cc1	7%	19%	-2.2	0.0%	-18	4	6%
O=c1ccc2cc(S(=O)(=O)N3CCOCC3)ccc2o1	24%	16%	-1.6	-5.6%	2	6	10%
O=C(O)c1ccc(S(=O)(=O)N2CCC(c3nc(-c4ccccc4Cl)no3)CC2)cc1	20%	15%	1.0	-1.2%	-5	27	-11%
Cc1ccccc1NC(=O)N1CCCC(c2nc(-c3ccc(F)cc3)no2)C1 (stereo not given)	2%	7%	4.0	-0.4%	1	2	-23%
CCCc1nn(C)c2c1C(c1cccnc1)C(C#N)=C(N)O2 (stereo not given)	-15%	12%	-3.9	0.7%	-13	6	6%
COc1ccc(NS(=O)(=O)c2csc(C(=O)Nc3ccccc3)c2)cc1	1%[15.4 µM]	-3%	-2.0	nt	-10	-8	-15%
CSc1ccc(CN2CCN(C(=O)c3ccncc3)CC2)cc1	-12%	12%	-1.2	nt	-8	2	3%
COc1ccc(N(CC(=O)N2CCCCCC2)S(=O)(=O)c2ccccc2)cc1	0%[15.4 µM]	11%	-0.5	-0.2%	-2	-5	-27%
CC(=O)Nc1ccc(NC(=O)COc2ccc(Br)cc2C)cc1	9%[15.4 µM]	-6%	4.2	0.1%	-2	6	2%

Reformatted: results already given.
smiles | gsp ag | Sfp inh | Menin-MLL FL inh | ClpP mod | D2 potentiator | TRPV1 PAM | gsp antag
CSc1ccc(CN2CCN(C(=O)c3ccncc3)CC2)cc1 | -12% | 12% | -1.2 | nt | -8 | 2 | 3%
C[C@@H]1CN([C@@H](C)CO)S(=O)(=O)c2ccc(Br)cc2O[C@H]1CN(C)C(=O)c1ccncc1 | -14% | nt | nt | -0.6% | 2 | nt | nt
O=C(OCc1ccccc1)N1CCC2CC1c1cc(-c3cc4ccccc4o3)ccc12 (stereo not given) | -16% | nt | nt | 4.1% | -2 | nt | nt

Profiles, looked up by structure.
`CCSc1nc2ccccc2n1C(=O)Oc1ccccc1` reads gsp ag: -2%; Sfp inh: 0%; Menin-MLL FL inh: 6.7; ClpP mod: -0.9%; D2 potentiator: -27; TRPV1 PAM: 2; gsp antag: 13%
`CCCOc1c(Cl)cc(C(=O)Nc2ccc3c(c2)OCO3)cc1OCC` reads gsp ag: -12%; Sfp inh: 15%; Menin-MLL FL inh: 1.4; ClpP mod: -1.0%; D2 potentiator: -32; TRPV1 PAM: -13; gsp antag: ?

Next structures
SMILES	gsp ag	Sfp inh	Menin-MLL FL inh	ClpP mod	D2 potentiator	TRPV1 PAM	gsp antag
CCC(=O)Nc1cc2c(cc1C(=O)c1ccccc1)OCCO2	-7%	1%	4.2	-1.9%	-8	9	-1%
COc1ccc(C2CCCN2C(=S)Nc2cccc(Cl)c2C)cc1OC (stereo not given)	?	15%	3.0	nt	-3	-14	?
O=C1CN(C(=O)/C=C/c2ccc(Cl)cc2Cl)CCN1	25%	-15%	1.9	nt	-2	0	6%
CCC(c1nnnn1C(C)(C)C)N(CCOC)Cc1cc2cccc(C)c2n2nnnc12 (stereo not given)	nt	16%	-11	nt	nt	1	nt
CC(C)Cc1ccc(C(C)CC2=CCC(CN(C)C)C2=O)cc1 (stereo not given)	10%	nt	nt	-8.7%	-38	nt	-7%
CCOC(=O)C1=C(CN2CCc3ccccc32)NC(=O)NC1c1cccc([N+](=O)[O-])c1 (stereo not given)	5%	4%	0.8	1.4%	-14	1	2%
NC(=S)N/N=C/c1ccc(-c2ccc([N+](=O)[O-])cc2)o1	-1%	3.5µM*	-4.4	1.0%	-16	22	-7%
COc1cc2c(cc1NC(=O)c1cc(-c3cccnc3)nc3ccc(C)cc13)oc1ccccc12	-4%	0%	5.6	20µM*	15	-6	-19%
CC(C)(C)c1ccc(-c2nnc(N)s2)cc1	16%	19%	2.7	-4.0%	-7	-8	12%
COC(=O)c1cccc(C(=O)Nc2ccc(C)cc2)n1	-7%	20%	0.7	-0.5%	-3	-8	1%
COc1ccccc1C(=O)NCCC(=O)N1CCN(c2ccc(C(F)(F)F)cn2)CC1	-2%[15.4 µM]	nt	nt	nt	0	9	-12%
CC1CCN(C(=O)CSc2nc(C(C)C)nc3c2c(=O)n(C)c(=O)n3C)CC1	12%	?	nt	-0.3%	5	-12	?
Cn1nc(SCc2ccccc2)c(=O)[nH]c1=O	8%	nt	nt	1.1%	-2	nt	nt
CCN(CC(=O)Nc1ccccc1C(F)(F)F)C(=O)c1cc(-c2cccs2)nn1-c1ccccc1	8%	-5%	-1.3	-2.2%	-16	2	?
